FGF22 binding – FGF22 (human) thermal shift binding; AID 651658; recombinant FGF22 thermal shift, SYPRO orange fluorescence; percent of sucrose octasulfate shift, DMSO zero; calls only at 9.99 µM; Q9HCT0; 1.5% of 340,000 active;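 active = melting point raised past a set limit in the mean and every replicate; inconclusive = no clear call; three in four hits are not shown here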
Target sequence (Q9HCT0 whole entry, looked up): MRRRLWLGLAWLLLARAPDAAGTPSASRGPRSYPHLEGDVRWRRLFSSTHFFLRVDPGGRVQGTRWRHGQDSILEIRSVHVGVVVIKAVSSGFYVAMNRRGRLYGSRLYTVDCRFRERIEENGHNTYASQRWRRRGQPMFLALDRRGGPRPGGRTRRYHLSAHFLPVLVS
RanGTP-Imp inh – inhibitors of RanGTP-importin-beta interaction, primary screen, biochemical, FRET, CFP-Ran, YFP-importin-beta, homogeneous. inhibition, % (concentration not given with the values). cell-free CFP-Ran/YFP-importin-beta FRET ratio. 1.1% of 300,000 active;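 active = most replicates above 15%; inconclusive = exactly half above 15%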;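 also: 0% = DMSO wells and 100% = Ran loaded with GDP instead of GTP; wells of about 40 µL received 100 nL stock; the first replicate is given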
ALR inh – blocks human ALR sulfhydryl oxidase activity | purified ALR, DTT oxidation, H2O2 HRP-luminol luminescence | inhibition, % (test concentration not listed) | 3.8% of 290,000 active;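 active = mean and each replicate at 75% or more; inconclusive = only one of the two met; inactive = neither met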;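 also: stock transfer was 7.5 nL into about 7.5 µL; 0% = neutral wells and 100% = wells with inactivated enzyme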
Target sequence (P55789 whole entry, looked up): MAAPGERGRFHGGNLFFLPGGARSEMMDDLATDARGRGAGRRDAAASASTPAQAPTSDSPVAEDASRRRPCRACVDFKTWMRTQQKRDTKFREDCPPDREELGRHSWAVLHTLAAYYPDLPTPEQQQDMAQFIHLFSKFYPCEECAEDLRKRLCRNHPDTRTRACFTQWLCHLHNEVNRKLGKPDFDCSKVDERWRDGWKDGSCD
T cruzi inh – T. cruzi replication inhibition. T. cruzi beta-gal in NIH3T3, luminescence, 90 h. inhibition, % (no concentration beside the values). 1.4% of 300,000 active;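 active = mean inhibition across valid replicates above about 55%, limit read from the data; inconclusive = mean below that limit but half or more replicates reach it; inactive = mean below it, under half of replicates reach it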;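 also: signal also drops with host cell toxicity which is not excluded here; 0% = plate median of DMSO wells and 100% = zero luminescence signal; higher percent means less beta-gal luminescence so fewer parasites; stock transfer was 50 nL into about 50 µL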
AF4-AF9 inh – MLL-AF4/AF9 protein interaction inhibition; P42568; AlphaScreen, biotin-AF4 peptide binding to FLAG-AF9; inhibition, % at 10 µM; 0.47% of 350,000 active; AID 651704;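 active = every replicate reaching a set inhibition limit, whatever the replicate mean, cut at about 25% in these data; inconclusive = mean inhibition reaches that limit but some replicates miss it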;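 also: 0% = plate neutral control median and 100% = total signal loss; the record names both 10 and 1 µM as test concentration; the first replicate is given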
Target sequence (P42568 whole entry, looked up): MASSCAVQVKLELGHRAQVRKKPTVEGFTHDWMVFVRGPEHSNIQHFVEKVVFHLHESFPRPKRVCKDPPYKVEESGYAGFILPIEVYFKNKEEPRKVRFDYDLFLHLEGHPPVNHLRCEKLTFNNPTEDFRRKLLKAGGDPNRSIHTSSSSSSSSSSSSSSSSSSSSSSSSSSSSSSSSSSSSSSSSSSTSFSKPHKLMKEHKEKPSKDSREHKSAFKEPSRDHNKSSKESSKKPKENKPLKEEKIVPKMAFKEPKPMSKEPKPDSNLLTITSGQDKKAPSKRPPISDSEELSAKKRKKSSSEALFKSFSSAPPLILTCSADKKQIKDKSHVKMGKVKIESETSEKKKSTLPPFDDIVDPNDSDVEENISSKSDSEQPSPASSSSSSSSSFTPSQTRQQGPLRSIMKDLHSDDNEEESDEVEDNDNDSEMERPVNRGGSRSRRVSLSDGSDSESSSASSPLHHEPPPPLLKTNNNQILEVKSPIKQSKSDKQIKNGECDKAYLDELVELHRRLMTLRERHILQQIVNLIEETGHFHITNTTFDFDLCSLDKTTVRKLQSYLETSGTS
Calb FLC – C. albicans growth modulation with fluconazole; C. albicans CaCi-2 (fluconazole-resistant clinical isolate) + fluconazole, Alamar Blue growth, 48 h; growth inhibition, % (no concentration beside the values); 0.57% of 300,000 active; AID 1979;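 active = most replicates above 75%; inconclusive = exactly half above 75%; inactive = most below 75%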;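 also: all wells also contain fluconazole at 8 µg/ml as a sub-toxic cotreatment; 0% = median of DMSO wells and 100% = median of geldanamycin control wells; wells of about 8 µL received 7.5 nL stock; the first replicate is given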
Ecoli rRNA inh – selective bacterial rRNA inhibition in E. coli; E. coli WT GFP vs humanized-ribosome RFP mutants, fluorescence, 24 h; stronger effect = lower value; DMSO median 0, no signal -100; GFP signal change (wild-type ribosome), % (no concentration beside the values); 1.6% of 350,000 active; AID 720706;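 active = significant combined selectivity score with lowered wild-type GFP, culture density cut under 30%, mutant RFP and density less affected; inactive = any of these conditions unmet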; also: one replicate is shown; some compounds called inactive have numbers as strong as hits
Beta cell apopt – blocks beta cell apoptosis; 0.8% of 300,000 active; AID 435005; INS-1E cytokine-induced death, ATP luminescence, 48 h; percent of positive-control rescue, neutral wells zero; protection from apoptosis, % (no concentration beside the values);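 active = all replicates at 75% or more, or half of them and the mean; inconclusive = half reach 75% but not the mean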;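 also: 0% = cytokine-treated negative control wells and 100% = positive control rescue; higher means more ATP so stronger rescue from cytokine killing; wells of about 40 µL received 100 nL stock; the first replicate is given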
Ecoli rRNA inh OD600 – further read-out of Ecoli rRNA inh, marked with its call; OD600 change, %; measured here: OD600 growth;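 optical density of the mix in the first replicate; 0 = DMSO median and -100 = no signal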
Ecoli rRNA inh RFP – also measured in Ecoli rRNA inh; calls as there; RFP signal change, %; measured here: RFP humanized mutant strains;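 first replicate; 0 = DMSO median and -100 = no signal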
Numbers without * were called inactive; i = inactive; u = inconclusive; x = not tested or not shown; & = joins results of further samples. A portion of the library; the hit share may differ from the screen's.

#	Molecule	Calb FLC	Beta cell apopt	ALR inh	Ecoli rRNA inh RFP	Ecoli rRNA inh	RanGTP-Imp inh	Ecoli rRNA inh OD600	T cruzi inh	FGF22 binding	AF4-AF9 inh
1	COc1cc(C(=O)Oc2cccc(C)c2)cc(OC)c1OC	-12	0	-9	x	x	-2.5	x	-7	x	x
2	Nc1c(S(=O)(=O)c2cccc(Cl)c2)c2nc3ccccc3nc2n1/N=C/c1ccc(O)c(O)c1	85*	51	-7	x	x	-0.4	x	62*	x	x
3	Cc1cc(Nc2ccccc2)nc2cc(O)ccc12	-5	8	96*	-4.5	-21	18*	-16	18	i	-4.3
4	COc1ccc(S(=O)(=O)Nc2ccc3c(c2)OCO3)cc1C	-8	x	9	x	x	2.1	x	2	x	x
5	CN(CCC#N)C(=O)CSc1nc2scc(-c3ccccc3)c2c(=O)[nH]1	2	1	-5	x	x	-5.3	x	-6	x	x
6	COc1ccc(-c2n[nH]c(C)c2-c2ccc(OC)c(OC)c2)c(O)c1	u	-1	26	x	x	2.4	x	-5	x	x
7	O=C(NCc1ccccc1)[C@]1(C(F)(F)F)C[C@H](CCc2ccccc2)CCCO1	0	-9	36	-5.0	-7	-2.1	-15	17	i	-2.3
8	O=C(CNC(=O)c1ccco1)Nc1ccc2c(c1)OCCO2	-1	0	1	-1.2	6	x	9	-7	i	-1.1
9	Nc1ccccc1C(=O)Nc1cccc2ccccc12	3	x	-25	-1.2	6	5.1	11	3	i	-3.4
10	CCN(CC)CCCNC(=S)N1CCN(c2nc(-c3ccc(F)cc3)cs2)CC1	-8	17	31	-18	-52	3.1	-77	23	i	15
11	O=[N+]([O-])c1ccc(S(=O)(=O)N2CCC3(CC2)OCCN3S(=O)(=O)c2cccs2)cc1	-2	-1	-7	-0.8	0	5.1	-1	54	i	8.2
12	COc1ccc(C)cc1-n1nnnc1SCC(=O)NNC(=O)c1ccc([N+](=O)[O-])cc1	-21	-11	-7	-0.6	4	0.4	-6	6	i	-0.4
13	CC(C(=O)O)N1C(=O)C2C3CC(C2C1=O)C1C(c2ccccc2)c2sc(=O)[nH]c2SC31 (stereo not given)	-10	0	62	-4.0	18	74*	15	-4	i	-0.1
14	CC12CCC(C(=O)N(CCCCN3CCN(c4ccccn4)CC3)C1=O)C2(C)C (stereo not given)	-33	0	-18	-1.0	7	0.2	15	-20	i	-0.1
15	COc1ccc(CNC(=O)c2ccc(-c3ccccc3)cc2)cc1	-7	-3	-2	x	x	-0.2	x	-11	x	x
16	COc1cc(/C=C/C(=O)O)cc(S(=O)(=O)Nc2ccc3nc(SC)sc3c2)c1OC	-1	-6	x	1.7	4	-8.3	-4	-4	x	-0.5
17	C#CC(C)(C)NC(=O)c1ccc(-c2ccccc2F)cc1	-5	3	x	-2.7*	-23*	0.2	-13*	15	i	-7.2
18	O=C(NCCCNC(=O)c1ccc(Cl)cc1Cl)c1cnccn1	0	x	0	-1.8	0	-0.7	0	-14	i	-1.1
19	COc1ccc2[nH]c3c(c2c1)CCNC3(C)CCc1ccc(Cl)nc1 (stereo not given)	-3	-7	x	1.3	1	-0.9	6	1	i	12
20	Cn1nnnc1P(=O)(c1ccccc1)c1ccccc1	-2	4	-2	-1.4	7	-5.7	3	-8	x	-26

Ten entries from above, with values under each structure.
Screens in order: Calb FLC	Beta cell apopt	ALR inh	Ecoli rRNA inh RFP	Ecoli rRNA inh	RanGTP-Imp inh	Ecoli rRNA inh OD600	T cruzi inh	FGF22 binding	AF4-AF9 inh
#1 COc1cc(C(=O)Oc2cccc(C)c2)cc(OC)c1OC
    -12	0	-9	x	x	-2.5	x	-7	x	x
#2 Nc1c(S(=O)(=O)c2cccc(Cl)c2)c2nc3ccccc3nc2n1/N=C/c1ccc(O)c(O)c1
    85*	51	-7	x	x	-0.4	x	62*	x	x
#3 Cc1cc(Nc2ccccc2)nc2cc(O)ccc12
    -5	8	96*	-4.5	-21	18*	-16	18	i	-4.3
#4 COc1ccc(S(=O)(=O)Nc2ccc3c(c2)OCO3)cc1C
    -8	x	9	x	x	2.1	x	2	x	x
#5 CN(CCC#N)C(=O)CSc1nc2scc(-c3ccccc3)c2c(=O)[nH]1
    2	1	-5	x	x	-5.3	x	-6	x	x
#6 COc1ccc(-c2n[nH]c(C)c2-c2ccc(OC)c(OC)c2)c(O)c1
    u	-1	26	x	x	2.4	x	-5	x	x
#7 O=C(NCc1ccccc1)[C@]1(C(F)(F)F)C[C@H](CCc2ccccc2)CCCO1
    0	-9	36	-5.0	-7	-2.1	-15	17	i	-2.3
#8 O=C(CNC(=O)c1ccco1)Nc1ccc2c(c1)OCCO2
    -1	0	1	-1.2	6	x	9	-7	i	-1.1
#9 Nc1ccccc1C(=O)Nc1cccc2ccccc12
    3	x	-25	-1.2	6	5.1	11	3	i	-3.4
#10 CCN(CC)CCCNC(=S)N1CCN(c2nc(-c3ccc(F)cc3)cs2)CC1
    -8	17	31	-18	-52	3.1	-77	23	i	15

More entries.
#	Molecule	Calb FLC	Beta cell apopt	ALR inh	Ecoli rRNA inh RFP	Ecoli rRNA inh	RanGTP-Imp inh	Ecoli rRNA inh OD600	T cruzi inh	FGF22 binding	AF4-AF9 inh
21	CC(=O)N1CCC(C(=O)Nc2ccc(S(=O)(=O)N3CCCCC3)cc2)CC1	4	-4	-3	2.1	8	0.2	7	-5	i	-0.6
22	Cc1cccc(-n2ncc3c(NCc4cccs4)ncnc32)c1	-22	10	8	x	x	-2.6	x	-3	x	x
23	CC1CC(C)CN(C(=O)CSc2ccsc2[N+](=O)[O-])C1 (stereo not given)	-20	1	4	1.0	-23	2.1	-22	8	i	-2.9
24	CNC(=S)NCc1ccc2[nH]c3c(c2c1)CCCC3	-20	-2	45	-9.1	-5	11	-5	-13	i	3.2
25	Cc1ccc(/C=N/NC(=O)CNC(=O)c2cccs2)o1	-16	0	0	-1.1	13	-1.0	8	-8	i	-0.8
26	Cc1ccc(-c2nnc(-c3cccs3)o2)cc1	-2	8	-8	-0.8	6	-1.0	6	-6	i	-4.9
27	O=C(c1cc([N+](=O)[O-])ccc1Cl)N1CCN(c2ccccn2)CC1	-14	2	4	x	x	-1.1	x	-8	i	-1.1
28	O=C(CS(=O)(=O)c1cn(Cc2ccc(Cl)cc2)c2ccccc12)N1CCCCC1	0	2	-11	-7.6	-1	1.7	7	13	i	5.7
29	C[C@H](CO)N1C[C@H](C)[C@@H](CN(C)C(=O)Nc2ccc3c(c2)OCO3)Oc2c(NC(=O)c3ccncc3)cccc2C1=O	x	1	-6	-3.3&1.4	2&8	x	1&12	x	i	-27&-0.3
30	CSc1ccc(Cl)c(C(=O)Nc2cc(S(=O)(=O)N3CCOCC3)ccc2N2CCOCC2)c1	x	-6	-2	-1.0	2	x	13	x	x	2.0
31	Cc1[nH]n(-c2ccccc2)c(=O)c1N=Nc1ccccc1C(=O)N1CCOCC1	6	-3	-26	x	x	-1.4	x	11	x	x
32	COCC(=O)Nc1ccc(N2CCOCC2)c(S(=O)(=O)Nc2ccccc2OC)c1	x	15	x	2.9	-3	x	-2	x	i	2.1
33	COc1ccc(N(CC(=O)Nc2cccc(N(C)S(C)(=O)=O)c2)S(C)(=O)=O)cc1OC	u	1	-9	-3.3	9	-1.2	-1	-8	x	-10
34	Cc1ccc(NC(=O)C(c2ccccc2)N2CCN(CC(=O)N3CCOCC3)CC2)cc1Cl (stereo not given)	x	-11	-5	5.7	-9	x	-4	x	i	-0.5
35	O=C(NN=C1CCCC1)c1n[nH]c2c1CCCC2	-16	-2	99*	0.8	6	-0.5	9	19	x	-2.9
36	COC(=O)c1ccc(C(=O)OC)nc1	7	-13	-8	x	x	-3.2	x	-8	x	x
37	Cc1ccc(NC(=O)CCc2ccc(S(=O)(=O)NC3CCCCC3)cc2)cc1	23	4	-1	x	x	1.9	x	-7	x	x
38	CC1(C)O[C@@H]2[C@H](O1)[C@@H](CO)O[C@H]2n1cnc2c(N)ncnc21	x	-6	1	21	-1	x	4	x	i	1.1
39	CC(C)Oc1ccc(Cc2n[nH]c(=S)n2Cc2ccccc2)cc1Cl	-3	-1	-3	-3.1	-9	-2.5	-11	17	i	-35
40	CC(NC(=O)CCC(=O)N1CCN(S(=O)(=O)c2ccc(Cl)cc2)CC1)c1ccccc1 (stereo not given)	9	-13	-4	x	x	-1.1	x	2	x	x
41	C=CCNC(=S)NC(=O)c1ccc(C)c(Br)c1	8	-1	1	2.9	-21	-0.5	-22	-13	i	4.9
42	CCc1ccccc1N(C1=NCCCS1)S(=O)(=O)c1ccc(C(C)(C)C)cc1	-3	15	x	1.5	5	2.0	1	38	i	1.2
43	O=C(C1CCC(=O)N(C2CC2)C1)N1CCC(Oc2ccccc2F)CC1 (stereo not given)	-3	x	23	-2.5	0	u	8	-10	i	-1.4
44	CCc1ccc(NC(=O)NCc2ccc3c(c2)OCO3)cc1	-4	-3	-18	0.2	11	1.3	12	-6	i	-6.9
45	O=C(Cn1cnc2ccccc21)OCC(=O)N1CCCc2ccccc21	-16	0	-5	x	x	5.9	x	-2	x	x
46	O=C(N/N=C/c1cn(Cc2ccccc2)c2ccccc12)c1cc(O)cc(O)c1	-14	-2	75	4.9	-8	-2.2	-19	2	i	10
47	CCOC(=O)N1CCN(C(=O)C(C)c2ccc([N+](=O)[O-])cc2)CC1 (stereo not given)	4	-5	1	-1.0	15	-1.5	21	-6	i	3.6
48	Cc1cc(C)cc(C(=O)NCC(=O)OCC(=O)N(C)C2CCS(=O)(=O)C2)c1 (stereo not given)	21	-8	-14	x	x	7.5	x	22	x	x
49	COc1cccc(NC(=O)CSc2nnc3cc(C)nc(N)n23)c1	-12	-2	-3	0.5	6	-2.0	7	1	i	-0.6
50	C#CCOCCOCCOCCNc1nc(N2CCN(C(=O)[C@H](CCC(=O)O)n3cc([C@@H](N)CCCCN)nn3)CC2)nc(N2CCN(C(=O)[C@H](CCCCN)n3cc([C@@H](N)CC(N)=O)nn3)CC2)n1	x	-7	1	-1.0	7	x	14	x	i	7.9
51	COC(=O)c1ccccc1NC(=O)COc1ccc(S(=O)(=O)N2CCCC2)cc1C	-11	-3	-9	-5.9	3	-2.2	4	33	i	-2.4
52	Cn1nc(SCC(=O)O)sc1=S	-10	1	-6	x	x	2.2	x	8	x	x
53	Cc1ccc(Oc2nc3ccccn3c(=O)c2/C=C(\C#N)C(=O)NC2CCS(=O)(=O)C2)c(C)c1 (stereo not given)	4	-5	84*	6.8	-1	u	-4	1	i	3.7
